Source: PubChem (Broad Institute)
T. gondii: Toxoplasma gondii ME49Luc growth in HeLa cells, luciferase, no IFN-y, primary screen (AID 1259421) | T. gondii ME49Luc in HeLa, luciferase, 72 h, no IFN-y; hits give low values; reference of the scale and settings of repeat entries not given here; many of its hits are not listed in these tables | activity change, negative = inhibition, % | 9.6% of 6,400 active;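 active = activity change below -70%; inconclusive = fit judged invalid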;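 note: about 20 µM from a 10 mM stock diluted 500-fold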
The depositor's hits bear a star; ? = inconclusive; & = joins results of further samples.

SMILES	T. gondii
CC(CC(C(N)=O)(c1ccccc1)c1ccccc1)N(C)C (configuration not stated)	1&3
CC1(C)C(=O)C=C[C@@]2(C)C1C(=O)C(=O)[C@]1(C)C2CC[C@@]2(C)[C@H](c3ccoc3)C[C@H]3O[C@]321 (some centres not stated)	-86*
c1cncc(C2CCCCN2)c1 (configuration not stated)	-25&9
CCN1C[C@]2(OC(=O)c3ccccc3NC(C)=O)CC[C@@H](OC)[C@]34C1[C@@H](C[C@H]23)[C@@]1(O)C[C@H](OC)[C@H]2C[C@H]4[C@]1(O)[C@H]2OC	11
CC(=O)C1CCC2C3CCC4CC(C)(O)CCC4(C)C3CCC12C (configuration not stated)	14
N[C@]1(C(=O)O)CC[C@@H](C(=O)O)C1 (racemic)	4
CN(C)CCc1ccc(O)cc1	4&15
COc1ccc2c(c1O)-c1c(OC)c(OC)cc3c1[C@H](C2)N(C)CC3	20
CCNC(=O)C1OC(n2cnc3c(N)ncnc32)C(O)C1O (configuration not stated)	1
O=c1ccc2cc(O[C@@H]3O[C@H](CO)[C@@H](O)[C@H](O)[C@@H]3O)c(O)cc2o1	-1
CN(C(=O)Cc1ccc(Cl)c(Cl)c1)[C@H](CN1CCCC1)c1ccccc1	17&9
O=C1Nc2ccc(Cl)cc2C(c2ccccc2)=NC1O (configuration not stated)	21
O=C(O)C1=CCCN(CCOC(c2ccc(C(F)(F)F)cc2)c2ccc(C(F)(F)F)cc2)C1	-2&-19
Oc1ccc2c(c1)[C@@]13CCCC[C@@]1(O)[C@@H](C2)N(CC1CCC1)CC3	18
CC(N)Cc1c[nH]c2ccc(O)cc12 (configuration not stated)	0
CC(C)[C@@]1(NC(=O)[C@@H]2CC3c4cccc5[nH]cc(c45)C[C@H]3N(C)C2)O[C@@]2(O)[C@@H]3CCCN3C(=O)[C@H](Cc3ccccc3)N2C1=O (some centres not stated)	-14
Cc1ncc(CNC(=O)N(CCCl)[NH2+][O-])c(N)n1	19
C=CCC1(C(C)CCC)C(=O)NC(=S)NC1=O (configuration not stated)	3
CC(Cc1ccccc1)NCCC(c1ccccc1)c1ccccc1 (configuration not stated)	18
OC(Cc1ccncc1)C(Cl)(Cl)Cl (configuration not stated)	11&22

3 entries already listed, sorted by molecular weight, high to low:
SMILES	T. gondii
CC(C)[C@@]1(NC(=O)[C@@H]2CC3c4cccc5[nH]cc(c45)C[C@H]3N(C)C2)O[C@@]2(O)[C@@H]3CCCN3C(=O)[C@H](Cc3ccccc3)N2C1=O (some centres not stated)	-14
O=C1Nc2ccc(Cl)cc2C(c2ccccc2)=NC1O (configuration not stated)	21
CC(N)Cc1c[nH]c2ccc(O)cc12 (configuration not stated)	0

As a short view, 5 of the compounds above:
SMILES	T. gondii
CC(C)[C@@]1(NC(=O)[C@@H]2CC3c4cccc5[nH]cc(c45)C[C@H]3N(C)C2)O[C@@]2(O)[C@@H]3CCCN3C(=O)[C@H](Cc3ccccc3)N2C1=O (some centres not stated)	-14
Cc1ncc(CNC(=O)N(CCCl)[NH2+][O-])c(N)n1	19
C=CCC1(C(C)CCC)C(=O)NC(=S)NC1=O (configuration not stated)	3
CC(Cc1ccccc1)NCCC(c1ccccc1)c1ccccc1 (configuration not stated)	18
OC(Cc1ccncc1)C(Cl)(Cl)Cl (configuration not stated)	11&22

Next structures.
SMILES	T. gondii
CN1Cc2ccccc2[C@@H]2c3cccc4[nH]cc(c34)C[C@H]21	-79*
CC(=O)O[C@H]1C[C@H](O[C@H]2[C@@H](O)C[C@H](O[C@H]3[C@@H](O)C[C@H](O[C@H]4CC[C@@]5(C)C(CCC6C5C[C@@H](O)[C@]5(C)[C@@H](C7=CC(=O)OC7)CC[C@]65O)C4)O[C@@H]3C)O[C@@H]2C)O[C@H](C)[C@H]1O[C@@H]1O[C@H](CO)[C@@H](O)[C@H](O)[C@H]1O (some centres not stated)	-89*
Cn1c(CCCC(=O)O)nc2cc(N(CCCl)CCCl)ccc21	2&1
COc1cc(-n2c(=S)[nH]c3ccccc3c2=O)c(Cl)cc1Cl	19
COc1ccc2c(c1)[C@]13CCCC[C@H]1[C@H](C2)N(C)CC3	16
C=C1C[C@@H]2[C@H](CC[C@]3(C)C(=O)CC[C@@H]23)[C@@]2(C)C=CC(=O)C=C12	8
COc1ccc(CNC(=O)/C=C/c2ccc3[nH]cc(CCN(C)C)c3c2)cc1	6&7
CNCCc1cnc[nH]1	12
N#C[C@H](O[C@@H]1O[C@H](CO[C@@H]2O[C@H](CO)[C@@H](O)[C@H](O)[C@H]2O)[C@@H](O)[C@H](O)[C@H]1O)c1ccccc1	16
CN1C2C[C@H](OC(=O)[C@H](CO)c3ccccc3)C[C@@H]1[C@@H](O)C2	6
CN1C2C[C@H](OC(=O)[C@H](CO)c3ccccc3)C[C@H]1[C@@H](O)C2	5
CN1C(=O)CN=C(c2ccccc2)c2cc(Cl)ccc21	-6
CC(C)C[C@H](NC(=O)[C@H](Cc1ccccc1)NC(=O)CNC(=O)[C@H](C)NC(=O)[C@@H](N)Cc1ccc(O)cc1)C(=O)O	15
NC(=O)CN1C[C@H](O)CC1=O	-41
C(#CCN1CCCC1)CN1CCCC1	?
CC(C)(Cc1c[nH]c2ccc(Cl)cc12)NCCOc1ccccc1OCC1CC1	-63&-65
CC(C)[N+](C)(CCC(C(N)=O)(c1ccccc1)c1ccccc1)C(C)C	7
CC[C@H]1CN2CCC1C[C@@H]2[C@H](O)c1ccnc2ccc(OC)cc12 (some centres not stated)	19
CC(=O)OC[C@]12CCC(C)=C[C@H]1O[C@@H]1[C@H](O)[C@@H](OC(C)=O)[C@@]2(C)[C@@]12CO2	-83*
CCCN(C/C=C/I)C1CCc2ccc(O)cc2C1 (configuration not stated)	3
COc1ccc(C(=O)c2c(C)n(CCN3CCOCC3)c3cc(I)ccc23)cc1	0&4
COc1ccc2[nH]cc(CCN)c2c1	-1
O=C1C2CCN(CC2)C1(CO)CO	17
c1ccc2c(c1)sc1ccccc12	-6
NC(=NCc1ccc(Cl)cc1)SCCCc1cnc[nH]1	-4&-1
COc1ccc2[nH]cc(CCNCc3ccc(Br)cc3)c2c1	9
CC(C)(N)Cc1ccccc1	20&15
Clc1ccc(C23CNCC2C3)cc1Cl (configuration not stated)	6
Ic1cncc(OC[C@@H]2CCN2)c1	2&8
COC1=C[C@@H]2[C@@H]3Cc4ccc(OC)c(O)c4[C@]2(CCN3C)CC1=O	-15
COc1ccc(-n2nc(C(F)(F)F)cc2-c2ccc(Cl)cc2)cc1	15&28
CCCN1CCO[C@H]2c3cc(O)ccc3OC[C@@H]21	-9
CCCCCOc1c(OC)ccc2cc(C(=O)NCc3ccc4c(c3)OCO4)c(=O)[nH]c12	-62&24
CC(C)(C)NC[C@H](O)COc1cccc2[nH]c(C#N)cc12	1
C=C[C@H]1CN2CC[C@H]1C[C@H]2[C@H](O)c1ccnc2ccccc12	9&4
Cc1nccc2c1[nH]c1ccccc12	1
OC1CCCCC1N1CCC(c2ccccc2)CC1 (configuration not stated)	5
CCC(CO)(C(=O)OC1CC2CCC(C1)[N+]2(C)C)c1ccccc1 (configuration not stated)	0
O=C1Nc2ccccc2C2(CCN(CCc3ccc(C(F)(F)F)cc3)CC2)O1	19&17
C=CCN1CC[C@]2(C)c3cc(O)ccc3CC1[C@@H]2C	18

Structures listed so far that contain an NH in an aromatic ring (13):
SMILES	T. gondii
CC(N)Cc1c[nH]c2ccc(O)cc12 (configuration not stated)	0
CC(C)[C@@]1(NC(=O)[C@@H]2CC3c4cccc5[nH]cc(c45)C[C@H]3N(C)C2)O[C@@]2(O)[C@@H]3CCCN3C(=O)[C@H](Cc3ccccc3)N2C1=O (some centres not stated)	-14
CN1Cc2ccccc2[C@@H]2c3cccc4[nH]cc(c34)C[C@H]21	-79*
COc1cc(-n2c(=S)[nH]c3ccccc3c2=O)c(Cl)cc1Cl	19
COc1ccc(CNC(=O)/C=C/c2ccc3[nH]cc(CCN(C)C)c3c2)cc1	6&7
CNCCc1cnc[nH]1	12
CC(C)(Cc1c[nH]c2ccc(Cl)cc12)NCCOc1ccccc1OCC1CC1	-63&-65
COc1ccc2[nH]cc(CCN)c2c1	-1
NC(=NCc1ccc(Cl)cc1)SCCCc1cnc[nH]1	-4&-1
COc1ccc2[nH]cc(CCNCc3ccc(Br)cc3)c2c1	9
CCCCCOc1c(OC)ccc2cc(C(=O)NCc3ccc4c(c3)OCO4)c(=O)[nH]c12	-62&24
CC(C)(C)NC[C@H](O)COc1cccc2[nH]c(C#N)cc12	1
Cc1nccc2c1[nH]c1ccccc12	1

The list continues.
SMILES	T. gondii
COC(=O)[C@@H](N)CCCN=C(N)N[N+](=O)[O-]	-24
Cc1ccc(C[N+](C)(C)C)o1	10&1
CC(C)[C@@H](CN1CC[C@@](C)(c2cccc(O)c2)[C@@H](C)C1)NC(=O)[C@H]1Cc2ccc(O)cc2CN1	8
CN1CCC2=C(C1)c1ccccc1Cc1ccccc12	4
O=C1c2ccccc2C(=O)c2ccccc21	-6
Cc1nc(N)sc1CCN	8&11
c1cncc(C2CCCN2)c1 (configuration not stated)	2
Cc1sc2c(c1C)C(c1ccc(Cl)cc1)=N[C@@H](CC(=O)Nc1ccc(O)cc1)c1nnc(C)n1-2	14&-60
C[C@]12C[C@H]3S[C@H]3C[C@@H]1CC[C@@H]1[C@@H]2CC[C@]2(C)[C@@H](O)CC[C@@H]12	-16
O=c1[nH]c2ccc(Cl)cc2c(N[C@@H]2CN3CCC2CC3)c1-c1nc2ccccc2[nH]1	-83*
CCc1cccc(CC)c1NC1=NCCN1	6
C=CCN=C=S	0
Cc1cc(C(=O)CN2CCCC2)c(C)n1-c1ccc(F)cc1	31
C[C@]12CC[C@@H](O)C[C@@H]1CC[C@@H]1[C@@H]2CC[C@]2(C)C(=O)CC[C@@H]12	9
CCCC(C)C1(CC)C(=O)NC(=O)NC1=O (configuration not stated)	20
CCCN(CCC)C1CCc2ccc(O)cc2C1 (configuration not stated)	4&0
CCN(CC)CCO[C@H]1CC[C@@]2(C)C(=CC[C@@H]3[C@@H]2CC[C@]2(C)C(=O)CC[C@@H]32)C1	-13
C[C@]12CC[C@H](O)C[C@H]1CC[C@@H]1[C@@H]2CC[C@]2(C)[C@@](O)(c3ccoc3)CC[C@]12O	3
COc1ccc(OC)c(C(O)C(C)NC(C)(C)C)c1 (configuration not stated)	12
Fc1cc(F)c2c(c1)[C@H]1C=CC[C@H]1C(c1cccnc1)N2 (some centres not stated)	-75*
CC(=O)OCC1=C(C(=O)O)N2C(=O)[C@@H](NC(=O)CCCC(N)C(=O)O)C2SC1.[Zn] (some centres not stated)	20
COc1ccc2c(c1)[nH]c1c(C)nccc12	-10
C=CCN1CCC23c4c5ccc(O)c4OC2/C(=N\NC(=O)c2ccccc2)CCC3(O)C1C5 (configuration not stated)	26
c1ccc(C2CC2)c(OCC2=NCCN2)c1	16&8&7
CC(=O)Nc1ccc(Cc2ccc(NC(C)=O)cc2)cc1	11
O=C(N[C@H]1CN2CCC1CC2)c1ccc(Cl)cc1	9&10
Cc1ccc(-n2nccn2)c(C(=O)N2CCN(c3nc4cc(Cl)ccc4o3)CC[C@H]2C)c1	2
C=C[C@H]1CN2CC[C@H]1C[C@@H]2[C@H](O)c1ccnc2ccccc12	-8
Cc1ccccc1-n1c(Cn2ncc3c(N)ncnc32)nc2cccc(C)c2c1=O	14
N[C@@H](Cn1oc(=O)[nH]c1=O)C(=O)O	6
CC[C@H](c1cccc(O)c1)[C@@H](C)CN(C)C	14
CN1C(=O)COc2c(C(=O)NC3CN4CCC3CC4)cc(Cl)cc21 (configuration not stated)	8&2

A portion of the library; count on the stated rates, not on these rows.
